Source: PubChem BioAssay (several laboratories)
FPR ligand – ligands of human FPR, also counter-screen for FPRL1 ligands; FPR-expressing cells, fluorescent ligand binding, flow cytometry; inhibition, %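 (tested at 6.7 µM)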; hit rate 0.74% among 24,000;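 further: 0% = buffer wells and 100% = receptor blocker peptide wells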
Target sequence (P21462 whole entry, looked up): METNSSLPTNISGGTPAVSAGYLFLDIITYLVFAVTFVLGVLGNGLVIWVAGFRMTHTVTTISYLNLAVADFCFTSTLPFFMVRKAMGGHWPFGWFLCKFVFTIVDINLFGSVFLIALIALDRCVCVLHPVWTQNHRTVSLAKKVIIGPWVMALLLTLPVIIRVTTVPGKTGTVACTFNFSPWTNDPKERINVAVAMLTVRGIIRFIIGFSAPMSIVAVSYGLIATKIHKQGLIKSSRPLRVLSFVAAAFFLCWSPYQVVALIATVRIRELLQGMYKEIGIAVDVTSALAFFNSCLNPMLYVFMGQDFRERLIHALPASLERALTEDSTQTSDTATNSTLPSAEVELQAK
VCAM-1 imaging – inhibitors of TNFa-induced VCAM-1 surface display, imaging, high-content imaging, pooled HUVEC, TNFa stimulus (AID 456); HUVEC TNFa-induced VCAM-1 surface expression, immunofluorescence imaging; numbers were filed only for top-ranked candidate wells; inhibition, % at 5 µM; hits with a dose series show IC50 in µM; hit rate 0.2% among 10,000;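 active means top tenth filtered wells with inhibition above zero that passed visual or statistical confirmation; inactive means the rest, including hits rejected on review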;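 further: 0% = stimulated vehicle wells and 100% = unstimulated cells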
FPRL1 binder – binds the human formylpeptide receptor-like-1 FPRL1; P25090; FPRL1-expressing cells, fluorescent ligand binding inhibition, flow cytometry; inhibition, %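 (tested at 6.7 µM)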; hit rate 0.3% among 24,000; AID 441;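 further: 0% = buffer alone and 100% = receptor blocker peptide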
Target sequence (P25090 whole entry, looked up): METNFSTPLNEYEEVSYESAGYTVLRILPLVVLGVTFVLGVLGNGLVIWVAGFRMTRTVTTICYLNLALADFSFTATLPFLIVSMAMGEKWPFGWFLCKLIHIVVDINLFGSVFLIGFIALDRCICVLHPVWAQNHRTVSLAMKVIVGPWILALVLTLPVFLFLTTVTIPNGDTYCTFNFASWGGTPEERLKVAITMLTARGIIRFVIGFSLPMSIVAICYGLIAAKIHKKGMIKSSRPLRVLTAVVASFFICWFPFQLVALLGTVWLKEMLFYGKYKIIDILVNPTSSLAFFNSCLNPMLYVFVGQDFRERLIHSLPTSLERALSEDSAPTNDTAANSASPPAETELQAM
VCAM-1 inhibition – inhibitors of TNFa-induced VCAM-1 surface display, cell-based, plate reader, pooled HUVEC, TNFa stimulus (AID 454). HUVEC TNFa-induced VCAM-1 surface immunofluorescence, plate reader; numbers were filed only for top-ranked candidate wells. inhibition, % at 5 µM. hit rate 0.2% among 10,000;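 active means compound among top-ranked inhibitors of TNF-induced VCAM-1 adhesion protein staining, with the hit upheld by image or statistical review; inactive means the rest, including hits rejected on review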;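 further: 0% = TNFa with vehicle and 100% = cells without TNFa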
VCAM-1 augmentation – boosters of cytokine-driven VCAM-1 levels – imaging, high-content imaging, pooled HUVEC, TNFa stimulus (AID 457) | Pooled HUVEC, TNFa-induced VCAM-1 immunofluorescence imaging; hits of this screen are not shown here | hit rate 0.2% among 10,000 | calls only;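 active means a top-ranked rise in VCAM-1 staining upheld on image or statistical review; inactive means the rest, including candidates rejected on review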;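 further: compounds tested at 5 µM in the well; cells exposed to compound for 24 hours before fixing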
The depositor's hits bear a star; i = inactive; / = no result given.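 How the source made its calls, unless noted: active means mean above 30%; inconclusive means self-fluorescent; inactive means the rest.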 These rows are one share of the data; the hit share may differ from the screen's.

The first 2 records as a preview:
Below each compound – VCAM-1 augmentation	VCAM-1 imaging	FPRL1 binder	FPR ligand	VCAM-1 inhibition
#1 O=S1(=O)C=C(Sc2nc3ccccc3s2)c2ccccc21
  i	2.35µM*	-0.4	4.9	109.7
#2 CNC(=S)Nc1ccc(Nc2ccccc2)cc1
  /	/	-6.5	-5.9	/

The whole of this part, from the first entry:
Below each compound – VCAM-1 augmentation	VCAM-1 imaging	FPRL1 binder	FPR ligand	VCAM-1 inhibition
#1 O=S1(=O)C=C(Sc2nc3ccccc3s2)c2ccccc21
  i	2.35µM*	-0.4	4.9	109.7
#2 CNC(=S)Nc1ccc(Nc2ccccc2)cc1
  /	/	-6.5	-5.9	/
#3 COc1cccc(C2CC(=O)Nc3cc(OC)c(OC)c(OC)c32)c1OC (configuration not stated)
  /	/	-2.2	-1.5	/
#4 O=C(CSc1nccc2ccccc12)N1CCN(c2ccccn2)CC1
  /	/	-0.2	0.0	/
#5 CCOC(=O)N1CCC(=C2c3ccc(Cl)cc3CCc3cccnc32)CC1
  i	i	13.0	18.6	72.5
#6 O=C(c1noc2c1CCCC2)N1CCN(C(c2ccccc2)c2ccccc2)CC1
  /	/	1.1	-0.1	/
#7 Cc1ccc(S(=O)(=O)N2CCN(C(=O)c3cc(=O)[nH]c4ccccc34)CC2)c(C)c1
  i	i	-0.2	0.6	i
#8 CC(=O)N1CCN=C1SCc1ccccc1Cl
  /	/	8.3	0.3	/
#9 CCNC(=O)COc1ccc(Br)cc1Cl
  i	i	-4.4	-0.1	i
#10 CCOC(=O)c1ccc(NC(=O)CN(c2ccc(C)cc2)S(=O)(=O)c2c(C)n[nH]c2C)cc1
  /	/	-2.8	-5.8	/
#11 Cc1noc(NS(=O)(=O)c2ccc(NC(=O)CSc3nc4c(cc3C#N)CCC4)cc2)c1C
  /	/	-2.7	2.6	/
#12 O=C(c1ccc2c(=O)n(Cc3ccc4c(c3)OCO4)c(=S)[nH]c2c1)N1CCCCC1
  /	/	-3.6	-1.8	/
#13 CN(CC(=O)NC1CCCCC1)S(=O)(=O)c1ccc(Br)s1
  /	/	0.8	-0.7	/
#14 O=C(c1ccco1)N1CCN(C(=O)c2cccn3c(=O)c4c5c(sc4nc23)CCCC5)CC1
  /	/	2.4	10.6	/
#15 c1ccc(Cc2nnc3sc(-c4ccco4)nn23)cc1
  /	/	-2.3	5.0	/
#16 CCOc1ccc(C2C(C(=O)NC)=C(C)Nc3nc4ccccc4n32)cc1OC (configuration not stated)
  /	/	-2.9	1.2	/
#17 N#CCSc1nc(-c2ccccc2)cs1
  i	i	-1.5	-2.5	i
#18 CCN(Cc1cc2cc(OC)ccc2[nH]c1=O)C(=O)c1ccncc1
  i	i	14.3	10.5	i
#19 COc1ccccc1N1CCN(CCCNC(=O)Nc2ccccc2C)CC1
  /	/	-19.4	-16.5	/
#20 O=C(O)c1cccnc1SCC(=O)N1CCCCCC1
  /	/	-4.2	-5.1	/
#21 CC(=O)C1C(=O)C=C(c2ccco2)CC1c1ccccc1 (configuration not stated)
  /	/	-5.7	-0.3	/
#22 O=C(CSC1=NS(=O)(=O)c2ccccc21)Nc1ccccc1
  /	/	3.0	1.3	/
#23 CCN(CCCNC(=O)C1CCC(=O)N1Cc1ccc(C)cc1)c1cccc(C)c1 (configuration not stated)
  /	/	-3.3	1.8	/
#24 O=c1[nH]c2c(s1)C(c1ccccc1)C1C3CCC(C3)C1S2 (configuration not stated)
  /	/	-16.7	-5.8	/
#25 CCOC(=O)N1CCC(N2C(=O)c3ccccc3C2Nc2ccc3c(c2)OCCO3)CC1 (configuration not stated)
  /	/	-3.6	-2.2	/
#26 Cc1onc(-c2ccccc2Cl)c1C(=O)N1CCCCC1C(=O)O (configuration not stated)
  /	/	-2.8	8.3	/
#27 Cc1ccc2c(C(=O)CN3CCSCC3)c(C)[nH]c2c1
  i	i	4.6	-11.5	i
#28 Cc1ccc(-c2ccc(=O)n(CC(=O)NCCCN3CCCCC3)n2)cc1
  /	/	-1.3	-7.1	/
#29 CCCCN(Cc1ccccc1)C(=O)C1CCCN(S(=O)(=O)c2cnc[nH]2)C1 (configuration not stated)
  /	/	-2.5	-1.2	/
#30 O=S(=O)(NCC1CCCO1)c1cc(Br)c(Br)s1 (configuration not stated)
  /	/	-5.8	-3.2	/
#31 COc1ccccc1NS(=O)(=O)c1ccc(NC(=O)c2nc3ncccn3n2)cc1
  i	i	3.3	-0.2	i
#32 Nc1cccc(C(=O)O)c1
  i	i	-2.9	2.0	i
#33 Cn1c(=O)c(=O)n(C)c2cc(S(=O)(=O)CCC(=O)N3CCOCC3)ccc21
  i	i	8.0	9.2	i
#34 O=C(CC(NCCN1CCOCC1)C(=O)O)Nc1cccc(Cl)c1 (configuration not stated)
  /	/	4.9	3.0	/
#35 O=C(O)C1C2C=CC(C2)C1C(=O)N1CCN(CCO)CC1 (configuration not stated)
  /	/	0.2	-3.4	/
#36 Cc1ccc2c(c1)NC(=O)C(CC(=O)NCCCN1CCCCC1)O2 (configuration not stated)
  /	/	1.8	-2.0	/
#37 COC(=O)COc1cccc(NC(=O)COc2ccccc2)c1
  i	i	8.9	-2.3	i
#38 CC1CCN(c2oc(-c3cccc4ccccc34)nc2C#N)CC1
  i	i	-1.2	0.9	i
#39 CC1CCCC(C)N1C(=O)c1ccccc1Nc1ccc(SC(F)F)cc1 (configuration not stated)
  /	/	-6.8	-17.0	/
#40 Cc1ccc(-n2c(=O)cc(N3CCc4ccccc4C3)[nH]c2=O)cc1
  /	/	4.1	-1.3	/
#41 COc1ccc(C2C(=O)c3ccccc3C2=O)c(OC)c1
  /	/	-1.3	-0.3	/
#42 Cc1ccccc1-n1nc2c(c1NC(=O)c1cc3ccccc3oc1=O)CS(=O)C2 (configuration not stated)
  /	/	5.1	8.8	/
#43 COc1ccc(CN2C(=O)CN(C3CCCCCC3)C(=O)C2c2ccc(OC)c(OC)c2)cc1 (configuration not stated)
  /	/	5.1	-5.2	/
#44 COc1cccc(C(=O)Nc2ncc3c(n2)CC(C)CC3=O)c1 (configuration not stated)
  i	i	5.6	0.7	i
#45 O=C(C1=C(O)C(=O)N(Cc2ccccc2)C1c1cccnc1)c1ccco1 (configuration not stated)
  /	/	1.3	36.0*	/
#46 CN=CC1=C(O)c2ccccc2C1=O
  /	/	-3.8	-2.2	/
#47 CCC(=O)NC(C)C(c1cccs1)N1CCN(c2ccccc2)CC1 (configuration not stated)
  /	/	47.4*	-3.9	/
#48 COc1ccc(/C(O)=C2/C(=O)C(=O)N(CCCC(=O)O)C2c2ccc(OC)cc2)cc1 (configuration not stated)
  /	/	0.5	-12.9	/
#49 Cc1cc(NC(=O)CSc2nnc(C3COc4ccccc4O3)o2)no1 (configuration not stated)
  /	/	-1.5	4.5	/
#50 CCN1CCN(C(C(=O)NC2CCCC2)c2ccc(Cl)cc2)CC1 (configuration not stated)
  /	/	6.3	-2.3	/

The list continues:
Below each compound – VCAM-1 augmentation	VCAM-1 imaging	FPRL1 binder	FPR ligand	VCAM-1 inhibition
#51 Cc1cc(C)c(C)c(OCC(=O)NCC2CCCO2)c1 (configuration not stated)
  i	i	6.0	2.9	i
#52 O=C(NC(=O)c1cccc(OC(F)(F)C(F)F)c1)OC1CCS(=O)(=O)C1 (configuration not stated)
  /	/	-0.5	3.0	/
#53 COc1ccc(-n2c(C)nc3c(cnn3-c3ccc(C)c(C)c3)c2=O)cc1
  /	/	-4.6	0.9	/
#54 Cc1cccc(CN2CCN(CC(=O)NCc3ccc(F)cc3)C2=O)c1
  /	/	-2.0	3.5	/
#55 COC(=O)c1ccc(CSc2ncnc3c2nnn3-c2ccc(OC)cc2)o1
  i	i	-0.1	2.3	i
#56 Cc1nc2ncnn2c(N2CCC(C(=O)NCC3CCCO3)CC2)c1Cc1ccccc1 (configuration not stated)
  i	i	-1.6	-4.1	i
#57 CCN(CCNC(=O)C1CCCN(S(=O)(=O)CC)C1)c1ccccc1 (configuration not stated)
  /	/	10.5	-4.3	/
#58 O=C1c2cccnc2C(O)N1Cc1ccc(F)cc1 (configuration not stated)
  i	i	-0.3	-3.1	i
#59 O=C(NCc1ccccc1)N[C@@H](Cc1ccccc1)C(=O)O
  i	i	-2.4	0.6	i
#60 CCOCCn1c(=O)c2c(nc3n2CCN3c2ccccc2)n(C)c1=O
  /	/	4.3	3.9	/
#61 CCSc1nnc2c(n1)OC(c1ccc(C(=O)O)cc1)N(C(C)=O)c1ccccc1-2 (configuration not stated)
  /	/	2.3	-2.8	/
#62 O=S1(=O)CC(N2CCOCC2)c2ccccc21 (configuration not stated)
  i	i	0.6	-0.6	i
#63 COc1cc(C(=O)NCC(c2cccnc2)N2CCN(C)CC2)cc(OC)c1OC (configuration not stated)
  /	/	1.5	-3.8	/
#64 N#Cc1cc2ccccc2nc1SCC(=O)Nc1ccccc1N1CCOCC1
  i	i	1.4	0.3	i
#65 CCCCNC(=O)c1nnn(-c2ccccc2)c1N
  i	i	2.8	-2.0	i
#66 CC12CC(NC(=O)N1c1cccc(C(=O)NCc3ccc4c(c3)OCO4)c1)c1cc(Cl)ccc1O2 (configuration not stated)
  /	/	-0.1	0.9	/
#67 CCCOc1ccc(/C(O)=C2/C(=O)C(=O)N(CCCn3ccnc3)C2c2ccco2)cc1 (configuration not stated)
  /	/	1.8	3.5	/
#68 CCn1cnc2sc(C(=O)Nc3ccc4c(c3)OCO4)c(C)c2c1=O
  i	i	-2.5	-12.3	i
#69 CC(=O)c1ccc(NC(=O)c2cc(CC(C)C)on2)cc1
  i	i	6.3	-1.7	i
#70 CC(=O)c1cccc(NS(=O)(=O)c2c(C)noc2C)c1
  /	/	2.5	-5.8	/
#71 CCS(=O)(=O)NCCc1cc2ccc(C)cc2[nH]c1=O
  /	/	-0.9	3.6	/
#72 CCCCn1c(SCC(=O)Nc2cc(C)on2)nc2ccsc2c1=O
  /	/	-3.3	0.1	/
#73 CCCSc1nc(N)c(C#N)c(-c2ccc(C)cc2)c1C#N
  i	i	3.4	-3.4	i
#74 CC(=O)C1=C(C)Nc2ncnn2C1c1cccc(OCc2ccccc2)c1 (configuration not stated)
  i	i	-3.3	0.1	i
#75 COc1ccc(C2CC(C(F)(F)F)n3ncc(C(=O)NCc4cccnc4)c3N2)cc1OC (configuration not stated)
  i	i	9.7	5.6	i
#76 COCc1cc(C)nc(SCC(=O)Nc2cccc3cccnc23)c1C#N
  /	/	5.9	-3.2	/
#77 CCN(C(=O)c1cc(Cl)ccc1OC)C1CCCCC1
  i	i	4.6	5.0	i
#78 CCN1CCN(CC(O)COc2cccc(OC)c2)CC1 (configuration not stated)
  /	/	-3.0	-4.2	/
#79 CCCCOc1ccc(C(=O)N2CCC(C)CC2)cc1
  i	i	-5.0	-6.4	i
#80 O=C(C1CC(c2ccc(F)cc2)=NO1)N1CCN(Cc2ccccc2)CC1 (configuration not stated)
  /	/	-4.1	-1.8	/
#81 CCCCNC(=O)CCn1c(=O)c2ccccc2n(CC(=O)Nc2ccccc2OCC)c1=O
  /	/	8.1	-3.3	/
#82 COc1ccc(C(=O)OCCN=C2NS(=O)(=O)c3ccccc32)cc1OC
  /	/	-4.6	-2.7	/
#83 CCC1Oc2ccc(C)cc2N(CC(=O)NCc2cc(OC)ccc2OC)C1=O (configuration not stated)
  /	/	-2.0	4.7	/
#84 C#CCN1C(=O)C(O)(CC(=O)c2cccc(OC)c2)c2ccccc21 (configuration not stated)
  i	i	-4.7	-3.7	i
#85 COCCCNC(=O)CCS(=O)(=O)Cc1ccc(C)cc1
  /	/	-7.7	2.1	/
#86 CCOC(=O)C1CCN(C(C)=C2C(=O)c3ccccc3C2=O)CC1
  i	i	-5.8	-10.5	i
#87 CCOC(=O)c1sc(=S)n(-c2ccc(F)c(F)c2)c1N
  /	/	0.8	0.3	/
#88 O=C(Nc1cccc(F)c1)c1cccc(S(=O)(=O)N2CCOCC2)c1
  i	i	-0.8	-8.0	i
#89 Cc1cc2c(c(=O)o1)C1(C(=O)N(CC(=O)O)c3ccccc31)C(C#N)=C(N)O2 (configuration not stated)
  /	/	-2.3	4.0	/
#90 Cc1ccc(N(CC(=O)O)S(=O)(=O)c2cccc3nonc23)cc1
  /	/	0.5	2.5	/
#91 COc1ccc(-n2c(Cc3cccn3C)nnc2SCC(=O)N2CCCC2)cc1
  /	/	5.7	2.8	/
#92 CC1=CC(C)(C)Nc2ccccc21
  /	/	-4.3	6.2	/
#93 Cc1cccc(NC(=O)Cn2c(=O)n(C)c3ccccc32)c1
  i	i	-1.3	-2.5	i
#94 CCN1CCCC1CNC(=O)C1c2cc(OC)c(OC)cc2C(=O)N(C)C1c1cccnc1 (configuration not stated)
  /	/	-0.3	1.0	/
#95 Cc1c(C(=O)OCC2CCCO2)[nH]c2c1C(=O)CC(c1ccco1)C2 (configuration not stated)
  /	/	3.0	4.3	/
#96 c1coc(CN(Cc2cccs2)Cc2nnnn2C2CCCCC2)c1
  i	i	0.3	15.2	i
